Choline anaer gr = choline-fed anaerobic bacterial growth inhibition; Gram-negative bacterium anaerobic choline minimal medium, absorbance growth; hits give low values; many inactives read as strong as hits in the columns shown; calls only; hit rate 0.2% among 55,000; AID 1963822;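 active = growth z-score on choline under -2 at 7 or 20 h with little or no fall on glycerol, limits in tiers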;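 note: stock transfer was 300 nL into about 50 µL; the organism is E. coli; final concentration not given here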
Choline anaer gr early = also measured in Choline anaer gr; calls as there; z-score; measured here: choline growth z-score, timepoint 1;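 score of optical density at 7 h as mean of two plates; lower means less growth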
Active calls of the source: *; i = inactive; & = joins results of further samples. Some of the compounds tested; count on the stated rates, not on these rows.

SMILES	Choline anaer gr	Choline anaer gr early
O=C(NC1CCCCC1)c1cc2n(n1)CCCN(Cc1cccc(F)c1)C2=O	i	-0.74
CCOC(=O)Cn1cccc(S(=O)(=O)N2CCC(C)CC2)c1=O	i	1
Cc1ccc(S(=O)(=O)N(CC(=O)c2ccccc2)c2nc3nc(C)cc(C)n3n2)cc1	i	0.61
Cc1ccc(-c2cc(C(=O)NCc3cnn(C)c3C)c3cc(Br)ccc3n2)cc1	i	-0.53
Cc1csc(-n2[nH]c(C)c(CCC(=O)NC(C)C)c2=O)n1	i	0.07
Cc1ccc([N+](=O)[O-])cc1S(=O)(=O)N(C)C	i	0.16&-0.54
Clc1cccc2nc3n(c12)CCN(Cc1ccccc1)C3	i	0.8
CNC(=O)Cc1ccc(-n2c(=O)c3ccccc3n(CC(=O)NCc3ccc4c(c3)OCO4)c2=O)cc1	i	-1.4
CCC(C(=O)Nc1ccc(C)cn1)N1CCN(Cc2ccc(F)cc2)C(=O)C1=O (stereo not given)	i	0.58
COc1ccccc1-c1csc(-c2nnn(-c3ccc(Cl)cc3)c2N)n1	i	-0.37
O=C(Nc1ccccc1Cl)C1CCN(Cc2cnn(-c3ccccc3)c2-n2cccc2)CC1	i	-0.92
Cc1cccc(NC(=O)CSc2cc(C)c3cc(S(=O)(=O)N4CCCCC4)ccc3n2)c1	i	1.7
O=C(CCc1ccccc1)NCc1c(-c2ccccc2)nc2n1CCS2	i	-1.8
Cc1ccc(NC(=O)c2ccc3c(c2)N(C)C(=O)CO3)cc1	i	0.89
CC1CCN(c2ccc(-c3noc(CN4C(=O)COc5ccc(Cl)cc54)n3)cc2)CC1	i	1.5
Cc1cccc(NC(=O)CSc2ccc(-c3sc(-c4ccccc4)nc3C)nn2)c1	i	1.6
c1ccc(-c2cc(-c3nn4cnnc4s3)c3ccccc3n2)cc1	i	0.38
COc1ccc(-c2noc(Cc3nc(-c4cc(C)c(C)cc4C)cs3)n2)cc1	i	1.5
COc1ccc(C2=NN(c3nc(C)cs3)C(c3ccccc3F)C2)cc1 (stereo not given)	i	1.5
O=S(=O)(c1ccc(F)cc1)N1CCC(n2cnc3cccnc32)CC1	i	-0.37
CCSc1nnc(-c2nn(C)c3c2CN(S(=O)(=O)c2ccc(F)cc2F)CC3)n1CC	i	0.3
Cc1cc(C(=O)N(C)C)c(C)n1CCN(C)C	i	0.86
COC(=O)c1ccccc1NC(=O)C1CCN(c2ncnc3onc(C)c23)CC1	i	0.68
CCc1ccc(-n2nc(N3CCC(C(=O)NCc4ccccc4Cl)CC3)ccc2=O)cc1	i	0.79
CCCC(=O)Nc1ccc2c(c1)nc(CN1CCCC1)n2C	i	-0.8

The list continues:
SMILES	Choline anaer gr	Choline anaer gr early
CC1CCCN(C(=O)CN2CCN(C)CC2)C1 (stereo not given)	i	0.18
Cc1ccc(CN2CCN(C3CCN(C(=O)NC(C)(C)C)CC3)C2=O)cc1	i	0.29
CC(C)NC(=O)COc1ccccc1-c1nc(C(C)C)no1	i	1.2
CCCCC[C@H](O)/C=C/[C@H]1C(=O)C[C@H](O)[C@@H]1CCCCCCCO	i	0.45
NC(=O)C1(N2CCCCC2)CCN(c2ccc(NC(=O)c3ccccc3Cl)c(C(=O)O)c2)CC1	i	-2
O=C(Nc1cccc(Cl)c1)c1nnc(COCC(=O)N2CCN(C3CCCCC3)CC2)s1	i	0.45
Cc1cc(C)cc(NS(=O)(=O)c2c[nH]c(-c3nnc(C)o3)c2)c1	i	0.59
COc1ccc(-c2noc(-c3ccc(OCC(=O)NC4CCCCC4)cc3)n2)cc1	i	1.3
Cc1ccc(NC(=O)c2ccc(=O)n(CC(=O)Nc3ccc(C)cc3C)n2)cc1	i	0.54
O=NN(CCCl)C(=O)NCCCl	i	0.7
O=c1nc(SCc2ccccc2F)c2c(n1C1CCCC1)CCC2	i	-0.13
CCCN1CCN(S(=O)(=O)c2c(C)[nH]c(-c3nnc(C4CCC4)o3)c2C)CC1	i	-0.91
O=C1C(=O)N(Cc2ccccc2)CCN1CC(=O)N1CCc2ccccc21	i	-1.1
O=C(O)c1ccccc1C(=O)Nc1ccc(S(=O)(=O)Nc2nccs2)cc1	i	0.66
CC(C)c1cc(C2CCCN2C(=O)c2cc(C(F)(F)F)nn2C)on1 (stereo not given)	i	0.64
CCC(=O)Nc1ccc(-c2cc(C(=O)NCCN(C)C)c3ccccc3n2)cc1	i	-0.65
CCc1nnc2sc(-c3cc4ccccc4[nH]3)nn12	i	-3.2
Clc1ccc(-c2noc(-c3ccc(N4CCOCC4)nn3)n2)cc1	i	0.59
COc1ccc(-c2noc(CSc3nccn3-c3ccccc3)n2)cc1	i	0.89
CCc1ccc(NC(=O)NCc2c(C)nn(C)c2C)cc1	i	-1.2
COc1ccc(NC(=O)c2c(-c3cccnc3)noc2C)cc1OC	i	-0.26
O=C(CSc1nnc(C(=O)Nc2ccc(F)cc2)s1)NCCCN1CCc2ccccc2C1	i	-1.3
Cc1ccc(Cn2cccc2C2=NC(C(C)C)CO2)cc1 (stereo not given)	i	0.6
Cc1sc(-c2cc(C(F)(F)F)on2)cc1S(=O)(=O)Nc1ccccc1Cl	i	0.89
Cc1ccc2[nH]cc(NC(=O)N3CCCC(c4ccccc4)C3)c(=O)c2c1 (stereo not given)	i	-0.03

Remaining list, next part:
SMILES	Choline anaer gr	Choline anaer gr early
O=C(Nc1cccc(Cl)c1)C1CCN(c2nc3ccccc3nc2C(F)(F)F)CC1	i	1.7
CCC(=O)N1CCCC1c1nc2ccccc2n1CCCCOc1ccccc1Cl (stereo not given)	i	-0.13
O=C1COc2cc(S(=O)(=O)N3CCCC3C(=O)NC3CCCc4ccccc43)c(Cl)cc2N1 (stereo not given)	i	0.13
Cc1cc2oc(C(=O)NCC(c3ccc(C(C)(C)C)cc3)N(C)C)cc(=O)c2cc1C (stereo not given)	i	0.64
CCC(=O)NCc1nc2ccccc2n1Cc1ccccc1Cl	i	0.5
O=C(COc1ccccc1Br)NCCc1nc2ccccc2[nH]1	i	0.28
Cc1cccc(C)c1Nc1c(-c2cccc(O)c2)nc2cnc(Br)cn12	i	-1.2
CCC(C(=O)N1CCOCC1)n1c(C(=O)OC)cc2ccsc21 (stereo not given)	i	-0.24
Cc1ccc(C)c(CSc2nnc3n(CC(C)C)c(=O)c4cc(F)ccc4n23)c1	i	-0.44
CCN(Cc1ccccc1)C(=O)CCc1nc(CN2CCN(S(=O)(=O)c3ccc(CC(C)C)cc3)CC2)no1	i	0.58
Cc1nnc(NC(=O)NC2COc3ccccc3C2)s1 (stereo not given)	i	-0.54
O=C1Cc2cc(S(=O)(=O)N3CCN(c4ccccc4)CC3)ccc2N1	i	0.23
COC(=O)c1ccc(C2C3=C(CC(c4ccc(OC)cc4)CC3=O)Nc3onc(C)c32)cc1 (stereo not given)	i	1.4
Cc1csc(-c2cc(NC(=O)CNC(=O)c3ccccc3)c(C)s2)n1	i	-1.2
COc1ccc(OC)c(S(=O)(=O)N2CCc3nc(N4CCCCC4)ncc3C2)c1	i	-0.98
Cn1cnc(S(=O)(=O)N2CCC(C(=O)N3CCN(c4ccc(Cl)cc4)CC3)CC2)c1	i	-0.22
Cc1cc(C)cc(NC(=O)Cn2nc3c4sccc4ncn3c2=O)c1	i	1.1
COc1ccc2nc(NC(=O)C3c4cc(OC)c(OC)cc4C(=O)N(C)C3c3cccnc3)sc2c1 (stereo not given)	i	0.96
O=c1c2c3c(sc2ncn1Cc1ccc(F)cc1)CCC3	i	0.61
Cc1nc2c(C(=O)O)cnn2c(C)c1Cc1ccc(Cl)cc1	i	-1.6
CC1CSc2ccc(S(=O)(=O)N3CCOCC3)cc2N(CC(=O)NC(C)(C)C)C1=O (stereo not given)	i	0.79
O=C1COc2cc(S(=O)(=O)N3CCC(C(=O)NCC4CCCO4)CC3)c(Cl)cc2N1 (stereo not given)	i	-0.8
CN1CCN(c2oc(-c3ccc(S(=O)(=O)N4CCCC4)cc3)nc2C#N)CC1	i	0.05
O=C(O)c1cccn2c(=O)c3ccc(Cl)cc3nc12	i	0.79
O=C(Nc1cccc(Cl)c1)Nc1cc(NC(=O)c2ccccc2Cl)ccc1N1CCCCC1	i	1.6

Sorted by SMILES length (descending): part of the list above.
SMILES	Choline anaer gr	Choline anaer gr early
Cn1cnc(S(=O)(=O)N2CCC(C(=O)N3CCN(c4ccc(Cl)cc4)CC3)CC2)c1	i	-0.22
Cc1cc2oc(C(=O)NCC(c3ccc(C(C)(C)C)cc3)N(C)C)cc(=O)c2cc1C (stereo not given)	i	0.64
O=C(Nc1cccc(Cl)c1)Nc1cc(NC(=O)c2ccccc2Cl)ccc1N1CCCCC1	i	1.6
CN1CCN(c2oc(-c3ccc(S(=O)(=O)N4CCCC4)cc3)nc2C#N)CC1	i	0.05
COc1ccc(OC)c(S(=O)(=O)N2CCc3nc(N4CCCCC4)ncc3C2)c1	i	-0.98
O=C(COc1ccccc1Br)NCCc1nc2ccccc2[nH]1	i	0.28
CCC(=O)NCc1nc2ccccc2n1Cc1ccccc1Cl	i	0.5

More compounds
SMILES	Choline anaer gr	Choline anaer gr early
Cc1cc2nnc(SCC(=O)Nc3c(C)n(C)n(-c4ccccc4)c3=O)n2c2c(C)cccc12	i	-0.62
COc1ccccc1N1CCN(C(=O)CSc2nc3ccccc3nc2N2CCCCC2)CC1	i	0.6
CCOC(=O)c1ccc2c(c1)N(CC(=O)Nc1cccc(Cl)c1C)C(=O)c1ccccc1S2(=O)=O	i	0.71
Cc1scc2nc(C3CCC3)nc(N3CCC(C(=O)NCCC4=CCCCC4)CC3)c12	i	0.94
COc1ccc(C2c3cccn3CCN2S(=O)(=O)c2ccc(Br)cc2)cc1 (stereo not given)	i	-0.36
Cc1nnc(NC(=O)c2cc(=O)c3ccc(Br)cc3o2)s1	i	-0.24
CCCN1CCN(c2cc(C(=O)O)c3cc(NS(=O)(=O)c4ccc(F)cc4)ccc3n2)CC1	i	0.03
C=Cc1ccc(Cn2c(C(=O)OCC)c(NC(C)=O)c3c4c(sc32)CCCC4)cc1	i	-1.1
Cc1ccc(CNC(=O)c2cnc(N3CCCC3)nc2)cc1	i	-1.5
C#CCSc1nc2c(cnn2CCO)c(=O)[nH]1	i	-1.3
CCOc1ccc(-c2cc(NC(=O)COCc3cc(-c4ccc5c(c4)OCO5)on3)on2)cc1	i	-1.8
Cc1ccccc1C(=O)Nc1noc2ccccc12	i	-0.55
CCCN1CCn2c(nc3ccccc32)C1	i	-1.6
O=C(Nc1cccnc1)c1c(O)c2ccccc2n(-c2ccccc2)c1=O	i	1.1
O=C(Nc1ccccc1)C1CCN(c2nccn3nc(-c4ccc(F)cc4)cc23)CC1	i	-0.07
Cc1nn(-c2ccccc2)c2sc(C(=O)N3CCN(c4cccc(Cl)c4)CC3)cc12	i	1.5
COc1ccc(OCC(=O)Nc2ccccc2SCc2cc(=O)n3oc(C)cc3n2)cc1	i	-1.2
C=CCn1c(=O)oc2ccc(C(=O)N3CCN(c4cccc(Cl)c4)CC3)cc21	i	0.7
COc1ccc(-c2nn3c(NCCCN(C)C)cc(C)nc3c2C)cc1OC	i	0.64
Cc1noc2ncnc(NC(C)C)c12	i	-0.31
Cc1cc2nc(CSc3nnc4c(n3)[nH]c3ccccc34)cc(=O)n2o1	i	-0.89
C#CCSc1nc2c(c(=O)[nH]1)C(c1ccc(F)cc1F)CC(=O)N2 (stereo not given)	i	-0.34
Cc1sc(-c2noc(C3CCC3)n2)cc1NC(=O)c1cnccn1	i	1.2
CCC(C)NC(=O)c1cncc(-c2ccc(C)cc2)c1 (stereo not given)	i	0.71
O=C(NC1CCCC1)C1CCCN(S(=O)(=O)c2cc(-c3noc(C4CCCC4)n3)cs2)C1 (stereo not given)	i	-0.95

Complete entries as entered above. Screens in order: Choline anaer gr, Choline anaer gr early
Cc1ccccc1C(=O)Nc1noc2ccccc12 as listed: i, -0.55
CC(C)NC(=O)COc1ccccc1-c1nc(C(C)C)no1 as listed: i, 1.2
O=C(Nc1cccnc1)c1c(O)c2ccccc2n(-c2ccccc2)c1=O as listed: i, 1.1

The listing continues.
SMILES	Choline anaer gr	Choline anaer gr early
CN1C(=O)CN(S(C)(=O)=O)CC1(C)C(=O)NCC(=O)NCCC1=CCCCC1 (stereo not given)	i	0.72
CCc1ccc(NC(=O)Nc2cc(C(=O)NCc3ccc(C)cc3)ccc2N2CCOCC2)cc1	i	-0.45
Cc1[nH]c(=O)[nH]c(=O)c1S(=O)(=O)NC1CCCC1	i	0.16
CN(C)c1ccc(C(CNS(=O)(=O)CCc2ccccc2)N(C)C)cc1 (stereo not given)	i	-0.7
Cn1c(=O)n(CC(=O)O)c(=O)c2c1nc1n2CCN1c1ccccc1	i	0.62
Cc1ccc2cc(-c3noc(CCC(=O)Nc4nccs4)n3)c(=O)[nH]c2c1	i	-0.76
CN(CCOc1ccc(CC(Nc2ccccc2C(=O)c2ccccc2)C(=O)O)cc1)c1ccccn1 (stereo not given)	i	-0.97
CCCn1cnc2nc(CSc3ccccc3NC(=O)Nc3cccc(Cl)c3C)cc(=O)n21	i	0.26
Cc1ncc2c(N3CCOCC3)nccn12	i	-0.73
CC(C)c1nnc(-c2coc(S(=O)(=O)N3CCCC3)c2)o1	i	0.13
O=C(Nc1ccccc1)c1cnc2sc3c(n2c1=O)CCCC3	i	0.43
O=C(NCC1CCCO1)c1cc(-c2ccccc2O)no1 (stereo not given)	i	-0.01
O=C(CN1C(=O)CCn2nc(-c3ccc(Cl)cc3)cc21)N1CCOCC1	i	-0.35
CC(=O)N1CCCC1c1nc2ccccc2n1CC(C)C (stereo not given)	i	0.96
O=C(O)c1ccccc1Nc1cccc(OCc2ccc3ccccc3n2)c1	i	1.4&0.83

Bioassay records (PubChem BioAssay)
